Screening data from PubChem BioAssay.
UUG fidelity: modulators of yeast start codon fidelity, primary screen, whole organism, S. cerevisiae, single point, plate reader; AID 602363, 2012; 0.13% of 350,000 active; S. cerevisiae UUG-firefly luciferase reporter, luminescence/redox ratio; activity score, % at 18.7 µM;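 active means replicate mean at a twofold rise or more, about +100% in these data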;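 further: firefly luciferase made from a UUG start codon reports start codon fidelity; reporter light over untreated wells divided by growth signal over untreated wells; some hits fall short of that in this replicate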
Rce1 inhib: yeast Rce1p protease inhibitors, primary screen, biochemical, fluorescence, cell-free homogeneous | yeast membranes, quenched prenylated peptide cleavage fluorescence | calls only | 0.27% of 290,000 active | AID 2563, 2010;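 active means fall in fluorescence gain of 50% or more versus controls, with final raw signal at or below 3038400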;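 further: plate controls were neutral control wells for no effect and wells lacking membranes for full effect; tested at 10 µM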
Target sequence (Q03530 whole entry, looked up): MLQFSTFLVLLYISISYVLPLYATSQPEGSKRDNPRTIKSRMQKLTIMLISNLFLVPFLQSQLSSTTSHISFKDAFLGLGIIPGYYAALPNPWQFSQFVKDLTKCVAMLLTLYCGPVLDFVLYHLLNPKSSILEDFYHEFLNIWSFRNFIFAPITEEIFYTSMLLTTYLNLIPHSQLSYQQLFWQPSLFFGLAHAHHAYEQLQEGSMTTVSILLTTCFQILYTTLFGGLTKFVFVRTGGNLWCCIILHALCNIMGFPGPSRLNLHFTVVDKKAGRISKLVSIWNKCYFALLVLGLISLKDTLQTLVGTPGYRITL
MT1-MMP act inh: blockers of MT1-MMP proenzyme processing, primary screen, HT1080 RFP-PRO-GFP cells, GFP/RFP fluorescence. 0.061% of 360,000 active. Matrix metalloproteinase-14 (Homo sapiens), P50281. GFP/RFP ratio fluorescence, overnight; percent of plate control window, DMSO zero. GFP/RFP ratio change, % at 20 µM;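 active means GFP/RFP ratio change of at least 30% with cell ATP level not reduced by more than half and red fluorescence within 50% of control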; further: strong numbers were not always called active
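Material: RFP-PRO-GFP reporter HT1080 cells. Dosing: single-point 20 µM compound, 1% DMSO. Controls: DMSO and RFP-L50D-GFP cell wells. Timing: cells overnight before dosing, compound overnight, 37 °C, 5% CO2. Measure: GFP/RFP fluorescence ratio.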
PABP FP inh: PABP poly(A) RNA binding inhibitors, primary screen, biochemical, fluorescence polarization, uHTS; inhibition, % at 35 µM; 1% of 290,000 active; Polyadenylate-binding protein 1 (Homo sapiens), P11940;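 active means 50% or more with normal probe brightness, or confirmed in later tests; about a fifth of its hits are not listed in these tables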;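 further: calls also rest on retests at 20 µM and on dose response follow-up; controls were probe without protein and protein plus probe with vehicle; some compounds called inactive have numbers as strong as hits; many hits fall short of the cut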
Target sequence (P11940 whole entry, looked up): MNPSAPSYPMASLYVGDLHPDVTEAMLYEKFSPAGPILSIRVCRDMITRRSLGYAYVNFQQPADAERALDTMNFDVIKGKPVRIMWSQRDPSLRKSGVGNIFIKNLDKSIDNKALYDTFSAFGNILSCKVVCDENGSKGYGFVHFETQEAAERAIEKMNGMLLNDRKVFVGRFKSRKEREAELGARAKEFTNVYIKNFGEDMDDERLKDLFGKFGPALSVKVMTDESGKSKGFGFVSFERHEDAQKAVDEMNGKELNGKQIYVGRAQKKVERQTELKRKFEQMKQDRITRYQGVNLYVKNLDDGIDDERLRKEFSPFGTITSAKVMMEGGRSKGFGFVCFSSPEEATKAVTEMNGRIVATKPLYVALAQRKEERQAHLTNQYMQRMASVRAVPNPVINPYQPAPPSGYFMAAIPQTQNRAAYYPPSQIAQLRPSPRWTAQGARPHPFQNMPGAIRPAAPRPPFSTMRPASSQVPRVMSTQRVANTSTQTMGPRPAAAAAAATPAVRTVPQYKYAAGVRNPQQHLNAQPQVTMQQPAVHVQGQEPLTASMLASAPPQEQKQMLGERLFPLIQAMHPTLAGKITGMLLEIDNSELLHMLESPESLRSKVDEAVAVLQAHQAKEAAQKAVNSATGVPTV
eIF4H inh: human eIF4H binding inhibitors, primary screen, translation initiation inhibitor project, biochemical, uHTS, fluorescence polarization; Eukaryotic translation initiation factor 4H (Homo sapiens), Q15056; eIF4H fluorescence polarization binding assay; inhibition, % at 35 µM; 0.94% of 290,000 active;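 active means 50% or more with normal probe brightness, or confirmed in later tests; about a fifth of its hits are not listed in these tables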;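 further: calls also rest on retests at 20 µM and on dose response follow-up; 0% = protein and probe with vehicle and 100% = probe without protein; strong numbers were not always called active; many hits fall short of the cut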
CSC inhib: cancer stem cell viability inhibitors, primary screen, luminescence | AID 2717, 2010 | cancer stem cell-like cells viability | inhibition, % at 7.5 µM | 1.1% of 300,000 active;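 active means mean at 75% or more and at least half the replicates too; tested in HMLE shEcad cells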;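 further: 0% = median of negative and 100% = median of positive control wells; the first replicate is given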
HIV Env fusion: inhibitors of HIV-1 Env-driven cell-cell fusion, primary screen, HeLa-JRFL effector, CEM21 target cells, luciferase. inhibition, % at 12.3 µM. 1.1% of 360,000 active;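 active means mean replicate inhibition score of at least 50 and every replicate individually at or above 50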;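 further: 0% = plate neutral controls and 100% = maraviroc near 300 nM; one replicate is shown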
eIF4H inh retest: second read-out of eIF4H inh, no call of its own (marks repeat the call); inhibition, %; compound at 20 µM; confirmation average;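 mean of two retest wells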
PABP FP inh retest: further read-out of PABP FP inh, marked with its call; inhibition, %; compound at 20 µM; confirmation repeats;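 mean of two retest wells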
MT1-MMP act inh RFP: second read-out of MT1-MMP act inh, no call of its own (marks repeat the call); RFP signal change, %; measured here: RFP expression control read;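 0 = vehicle wells; hits needed this value within 50% of zero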
Numbers without * were called inactive; i = inactive; . = not tested or not shown.

SMILES	UUG fidelity	Rce1 inhib	MT1-MMP act inh	MT1-MMP act inh RFP	PABP FP inh	eIF4H inh	CSC inhib	HIV Env fusion	others
O=C(C1CCN(S(=O)(=O)c2cccnc2)CC1)N1CCCCC1	.	i	8	7	-7	3	.	-24
Cc1cc(C)cc(N(CC(=O)NC(C)(C)C)C(=O)CCC(=O)Nc2nccs2)c1	8	i	-1	-2	-2	-12	-10	-7
CCc1nnc(NC(=O)C(c2ccccc2)c2ccccc2)s1	-6	i	-3	-2	-9	-7	-8	16
CCn1c(Cc2ccc(OC)cc2)nnc1SCC(=O)Nc1ccc(N2CCOCC2)cc1	-9	i	1	4	-6	-7	.	-2
Cc1[nH]nc2c1C(c1ccco1)C(C#N)=C(N)O2 (stereo not drawn)	-5	i	.	.	29	7	-11	3
CCc1ccccc1NC1=NCC(=O)N1Cc1ccc2c(c1)OCO2	-14	i	-3	-3	-15	-8	11	-86
O=C1NC(=O)C([N+](=O)[O-])=C(O)C1=O	-16	.	-3	2	.	.	.	-13
CCN(CC(=O)NC(C)(C)C)C(=O)c1ccccc1SCC(=O)NC1CCCCCCC1	9	i	-2	-2	18	3	23	.
N#Cc1c(C(F)(F)F)cc(C2CC2)nc1N1CCCC1	-14	i	-2	4	9	8	-10	.
Cc1cccc(S(=O)(=O)N2C[C@@H](O)COC[C@@H]3O[C@H](CC(=O)NCCCN4CCOCC4)CC[C@H]32)c1	-4	.	2	9	.	.	.	14
CCNC(=S)N/N=C1\CCCCc2ccccc21	-33	i	-3	0	10	3	13	10
CCCc1cc(=O)[nH]c(SCC(=O)Nc2sc3c(c2C#N)CCC(C)C3)n1 (stereo not drawn)	1	i	1	1	-1	48	-1	1
Cc1ccccc1CSc1nnc(-c2ccncc2)o1	-10	i	-7	0	-17	4	-8	-7
CN1CCN(NC(=O)CSc2ccc(Cl)cc2Cl)CC1	-11	i	0	0	-12	10	2	-7
O=S(=O)(NC1CCCCC1N1CCN(c2ccc(F)cc2)CC1)c1ccccc1 (stereo not drawn)	-3	i	0	-3	3	10	6	13
CCOC(=O)c1cc(CC)sc1/N=C/C1=C(O)CC(C)(C)CC1=O	5	i	8	5	7	15	-13	.
COCCN(C(=O)c1cc(-c2ccc(F)cc2)nc2ccccc12)c1c(N)n(CC(C)C)c(=O)[nH]c1=O	-14	.	-3	2	.	.	.	0
Cn1nc(-c2ccc(Cl)cc2)c2cc(C(=O)NCC3CCCO3)sc21 (stereo not drawn)	8	i	-2	-4	6	-13	11	-8
Cc1ccc(NC(=O)c2sc3nc(C)cc(C)c3c2N)cc1	-19	i	8	3	-2	-11	-7	-142
Cc1ccc(S(=O)(=O)NC(=O)c2ccc(Br)o2)c(C)c1	-13	i	5	7	22	3	-5	14
CCC(=O)N1CCN(c2ccc(NC(=S)NC(=O)c3ccc(OC)c([N+](=O)[O-])c3)cc2)CC1	.	i	2	-5	-6	-3	-16	18
COc1ccccc1OCc1csc(N)n1	-18	i	0	-2	3	-3	-12	3
Cc1cccc(NC(=O)c2ccc(OCc3c(C)noc3C)cc2)c1	1	.	-2	-16	.	.	4	-22
COc1cc(C(=O)C(=O)c2ccc(O)c(OC)c2)ccc1O	-23	i	-3	5	6	-7	-2	-4
Cc1cc(C)c(C(=O)OCc2csc(CC(=O)Nc3ccccc3C)n2)c(C)c1	1	i	2	-4	-12	-16	7	.
COc1ccc(S(=O)(=O)N2CCc3cc(OC)c(OC)cc3C2)cc1	19	i	4	-4	-11	3	1	-15
COc1ccc(O)c(/C=N/NC(=O)c2cccc(N3CCCC3=O)c2)c1	-2	i	-1	-6	2	12	.	27
COC(=O)c1ccc(Oc2nc(NC(C)C)nc(NC(C)C)n2)cc1	.	i	1	-9	-2	0	-30	8
CCCCNC(=O)c1onc(CSc2cc(C)cc(C)c2)c1C(=O)O	-9	i	-3	2	4	-1	18	0
Cc1sc(-n2c(C)cc(/C=N/n3cnnc3)c2C)c(C#N)c1C	-16	i	5	-12	5	-3	.	.

Quoted at random: 3 compounds from above, in no set order.
SMILES	UUG fidelity	Rce1 inhib	MT1-MMP act inh	MT1-MMP act inh RFP	PABP FP inh	eIF4H inh	CSC inhib	HIV Env fusion	others
CCN(CC(=O)NC(C)(C)C)C(=O)c1ccccc1SCC(=O)NC1CCCCCCC1	9	i	-2	-2	18	3	23	.
Cc1[nH]nc2c1C(c1ccco1)C(C#N)=C(N)O2 (stereo not drawn)	-5	i	.	.	29	7	-11	3
CCCCNC(=O)c1onc(CSc2cc(C)cc(C)c2)c1C(=O)O	-9	i	-3	2	4	-1	18	0

Additional records follow.
SMILES	UUG fidelity	Rce1 inhib	MT1-MMP act inh	MT1-MMP act inh RFP	PABP FP inh	eIF4H inh	CSC inhib	HIV Env fusion	others
COC(=O)Cc1[nH]nc2c1C(c1ccc(O)c(OC)c1)C(C#N)=C(N)O2 (stereo not drawn)	-11	i	-1	-1	4	27	-20	-1
O=C(NC(=S)NNC(=O)[C@H]1C[C@@H]1c1ccccc1)c1ccc(F)cc1	-25	i	8	3	-2	22	23	10
Cc1ccc(/C=N/NC(=O)c2cccc(NC(=O)c3ccccc3Cl)c2)o1	-11	.	-4	-3	2	5	-3	8
CCc1cc(=O)oc2cc(C)cc(OC(C)C(=O)NCc3ccncc3)c12 (stereo not drawn)	4	i	-2	0	.	.	-19	2
CCCN1CCC(NC(=O)Nc2ccccc2C(=O)OC)CC1	-7	i	-2	3	-1	-2	0	19
Cc1ccc(NC(=O)C2(C)Cc3ccccc3C(=O)O2)cc1 (stereo not drawn)	.	i	1	0	-1	-3	6	-4
Cc1ccc(C)c(Cn2c3ccccc3c3cnn(CC(=O)NCc4ccccn4)c(=O)c32)c1	-34	i	-4	-3	7	-2	7	-5
Nc1ccc(-c2nc3ccccc3o2)cc1	-32	i	-18	2	3.2*	50	7	-37	eIF4H inh retest=4;PABP FP inh retest=70*
Cc1cccc(C)c1NC(=O)CNC(=O)c1ccncc1	-18	i	2	3	7	-12	-8	-16
CC(C)C[C@H]1CN([C@@H](Cc2ccc(O)cc2)CN2CCC[C@@H]2CN2C(=S)NC[C@@H]2Cc2ccccc2)C(=S)N1CC1CCCCC1	-9	.	-3	-8	.	.	.	31
Nc1ncc(Br)cc1Br	.	i	-5	-2	5	-11	-3	3
N#Cc1c(Nc2ccccc2Cl)s[nH]c1=O	.	i	-2	-1	4	10	2	-11
COc1cc(-c2c(-c3ccc4c(c3)OCO4)noc2C)ccc1F	-5	i	-2	-11	14	0	56	2
C#CCN(C(=O)Nc1ccccc1)c1ccccc1	-1	i	2	6	59*	3.2*	-14	-1	eIF4H inh retest=104*;PABP FP inh retest=85*
O=C(O)CCC(=O)Nc1ccc(S(=O)(=O)Nc2nccs2)cc1	0	i	1	4	-5	11	-5	6
CCc1cccc(Nc2cc(C)nc3ncnn23)c1	-8	i	6	3	2	5	-1	-34
Oc1ccccc1-c1nc2ccccc2nc1-c1ccccc1	-21	i	-1	-3	-4	-11	-4	10
O=C(COc1ccccc1)Nc1ncccn1	-7	i	3	-2	-5	-2	-9	4
O=[N+]([O-])c1ccc(Nc2ccc3ccccc3c2)nc1	-12	i	6	-5	0	7	22	.
N=c1ccn(Cc2cccc(F)c2)cc1	-14	i	4	-3	0	1	-4	3
CCCn1c(SCC(=O)Nc2cc(Cl)ccc2OC)nc(O)cc1=O	-17	.	6	4	.	.	.	7
CCc1nn(-c2ccccc2)c(N)c1C#N	.	i	-3	2	3	0	-17	-68
Cc1ccc(NC(=O)C(C)N2C(=O)c3ccccc3C2=O)cc1 (stereo not drawn)	-6	i	5	8	-6	-14	-12	.
NC(=O)CN(c1ccccc1)C1SC(=O)N(Cc2ccccc2)C1=O (stereo not drawn)	-25	i	-7	1	-14	-2	-11	-7
Cc1csc(=N)n1CC(=O)N1CCc2ccccc21	-14	.	-1	1	-3	-12	-13	.
Cc1ccccc1CN1C(=O)CS/C1=N/N=C/c1ccco1	-10	i	1	0	-14	4	.	2
COc1cccc(Nc2ncnc3sc(C)cc23)c1	-16	i	1	-4	.	.	11	-22
Cc1ccc(C(=O)N/C(=C\c2cccnc2)C(=O)N2CCCC2)cc1	.	i	3	5	0	-1	-15	17
CNc1nc(=S)[nH]c2ccccc12	-19	i	0	6	18	4	-3	4
COc1ccc(CNC(=O)c2ccc(NS(=O)(=O)c3ccc4[nH]c(=O)[nH]c4c3)cc2)cc1OC	-6	.	-2	2	.	.	-2	.
CC(=O)Oc1cc2c(C(=O)NCCCN3CCOCC3)c(C)oc2c2ccccc12	16	i	3	1	-4	1	-16	.
CC1(C(=O)Nc2cnc3ccccc3c2)CCN1C(=O)c1ccccc1CCc1ccccc1 (stereo not drawn)	-12	.	-3	-4	.	.	.	10
CC1(c2ccc(Cl)cc2)NC(=O)N(CC(=O)NCc2cccs2)C1=O (stereo not drawn)	.	i	-1	1	3	4	-9	4
CCC(=O)N1CCc2cc(S(=O)(=O)CCC(=O)NCc3ccc(OC)cc3)ccc21	-17	i	2	4	-7	-17	-13	-2
CN(C)c1nc(OCc2ccccc2)c2ncc(=O)[nH]c2n1	.	i	1	1	.	.	6	11
N#Cc1cn(CC(=O)N2CCc3ccccc3C2)c2ccccc12	16	i	5	8	-9	0	-5	.
CCC(COC)NC(=O)c1ccc(OC)c(OC2CCN(C(C)=O)CC2)c1 (stereo not drawn)	-6	i	-2	5	-1	-10	-5	-1
CCCC1CCc2c(c3ccccc3[nH]c2=O)O1 (stereo not drawn)	0	i	-5	-2	-2	1	-7	.
O=C(NC(C(=O)c1ccccc1)N1CCCCCC1)c1ccco1 (stereo not drawn)	.	i	0	7	-9	4	-19	3
CCN(C(=O)COC(=O)/C=C/c1ccccc1[N+](=O)[O-])C1CCS(=O)(=O)C1 (stereo not drawn)	.	i	0	2	-6	2	-12	4
O=C(CCNS(=O)(=O)c1ccc2c(c1)CCC(=O)N2)Nc1ccc(F)c(F)c1	-8	i	-2	2	.	.	-4	-8
CCOC(=O)c1cccc(NC(=O)/C(=C\c2ccccc2)NC(=O)c2ccccc2Cl)c1	.	.	-2	-2	-1	-3	-2	.
CCn1cc(C(=O)NCc2ccco2)c(=O)c2cc(S(=O)(=O)N3CC(C)CC(C)C3)ccc21 (stereo not drawn)	-11	i	-15	-23	-2	2	83*	38
COc1cccc(Cn2nc3c4cc(F)ccc4n(Cc4ccc(F)cc4)cc-3c2=O)c1	7	i	0	2	-8	4	.	2
C[C@H]1CN(c2ccccc2)C(=O)[C@@H]1CC(=O)Nc1ccc(Br)cc1	20	.	4	1	.	.	.	-24
O=C(CSc1ccccc1C(=O)O)c1ccccc1	2	i	0	4	2	-2	-14	-9
COc1cccc(CNC(=O)c2ccc(C)c(S(=O)(=O)N3CCCCC3)c2)c1	9	i	-4	-20	.	.	36	4
CC(/C=C/C=C/c1ccccc1)=N/NC(=O)c1ccc2c(c1)OCCO2	-13	i	2	4	-4	3	12	-9
CNCCOc1ccccc1OC(C)C	.	i	-3	-4	8	17	-7	12

Compounds were not picked by outcome. About 3% of those tested had a hit in this group.
